# Compound activity as filed in PubChem.
# Marburg entry inh: blocks Marburg virus binding to or entry into cells; Marburg virus pseudotyped entry inhibition, cell reporter; control for the full effect not named in the record; about a third of the inactives were read at about 46 µM; Potency, µM (series often up to 37.8 µM), inactives show top-dose activity change, negative = inhibition, hits mostly inhibitors; hit rate 1.8% among 300,000; AID 540276; active = well fitted inhibition curve with a large enough effect; inconclusive = small, poorly fitted or top-dose-only effect, or effect the other way; inactive = flat fitted curve, though single readings scatter; tested in HEK293 cells; about a fifth of its hits are not listed in these tables; further: on the % scale 0 is the no-effect control and ±100 the full control effect; luciferase read-out
# NS1 inh: influenza NS1 inhibition; S. cerevisiae slowed by influenza A NS1, growth recovery by OD600; Potency, µM (top dose mostly 46.1 µM), without a hit: at the highest dose activity, positive = more growth; hit rate 0.4% among 270,000; active means well fitted rising curve with a large enough effect; inconclusive means small, poorly fitted or top-dose-only effect; inactive means no such curve, though single readings can be large or run the other way; further: nearly all actives have a fitted effect of over 50% in size
#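 In this qHTS, NS1 from influenza A is expressed in budding yeast, where it slows growth. Cells are switched from glucose to 2% galactose medium (pH 6.0, -URA), treated with compound, and growth recovery is read at OD600.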
# Cruzain inh Det: blocks cruzain activity in presence of Triton detergent; P25779; purified cruzain, Z-FR-AMC fluorescence, 0.01% Triton; Potency, µM, for inactives: max response, negative = inhibition, usual class: inhibitors; hit rate 0.43% among 200,000; AID 1478;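 further: plate controls were neutral wells for no effect and buffer without enzyme for full effect; nearly all actives have a fitted effect of over 40% in size; top concentration of the series not given in the record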
# Target sequence (P25779 123-467 limits assumed): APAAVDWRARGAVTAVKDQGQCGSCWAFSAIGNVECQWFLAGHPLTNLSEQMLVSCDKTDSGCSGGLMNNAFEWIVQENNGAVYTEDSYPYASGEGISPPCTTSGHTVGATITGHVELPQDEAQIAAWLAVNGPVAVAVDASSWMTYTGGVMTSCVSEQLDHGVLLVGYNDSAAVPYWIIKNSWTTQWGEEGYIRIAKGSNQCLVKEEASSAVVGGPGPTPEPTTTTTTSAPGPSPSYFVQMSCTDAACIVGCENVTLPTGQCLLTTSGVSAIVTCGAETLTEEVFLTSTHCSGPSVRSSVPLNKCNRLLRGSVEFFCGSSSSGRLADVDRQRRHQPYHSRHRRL
#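 15 min RT preincubation of 1.5 nM cruzain with compound, then 2 uM Z-FR-AMC added; kinetic AMC fluorescence, 60 s delta. Triton X-100 0.01%, pH 5.5.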
# Cruzain noTriton: blocks cruzain activity in detergent-free assay | P25779 | purified cruzain, Z-FR-AMC fluorescence, no detergent | Potency, µM, without a hit: max response, negative = inhibition, hits mostly inhibitors | hit rate 2.3% among 200,000;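 further: plate controls were enzyme without inhibitor for no effect and buffer without enzyme for full effect; nearly all actives have a fitted effect of over 40% in size; top concentration of the series not given in the record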
#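 Purified cruzain at 1.5 nM, pre-incubated 15 min with compound at room temperature in 100 mM sodium acetate pH 5.5, 5 mM DTT, 0.00005% Triton X-100. Reaction started with 2 uM Z-FR-AMC; AMC fluorescence increase over 60 s gives rate.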
# Lassa entry inh: inhibitors of Lassa virus binding or cell entry. Potency, µM (doses to about 37.9 µM), for the others: at the top dose activity change, negative = inhibition, most hits filed as inhibitors. Lassa virus pseudotype entry inhibition, cell reporter; control for the full effect not named in the record. AID 540256. hit rate 1.2% among 300,000; active means well fitted inhibition curve with a large enough effect; inconclusive means small, poorly fitted or top-dose-only effect, or effect the other way; inactive means flat fitted curve, though single readings scatter; tested in HEK293 cells; further: on the % scale 0 is the no-effect control and ±100 the full control effect; nearly all actives have a fitted effect of over 50% in size; luciferase read-out
# RE007 growth inh: less growth of the S. pombe RE007 Vpr strain; S. pombe RE007 Vpr strain, BacTiter-Glo ATP luminescence, 24 h; control for the full effect not named in the record; hit rate 0.21% among 360,000; Potency, µM (doses to about 92.2 µM), without a hit: at the top dose activity change, negative = less growth; active = well fitted falling curve with a large enough effect; inconclusive = small, poorly fitted or top-dose-only effect; inactive = no such curve, though single readings can be large or run the other way;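 further: on the % scale 0 is the no-effect control and ±100 the full control effect; nearly all actives have a fitted effect of over 50% in size; the assay follows cell death caused by Vpr and the record does not say whether a fall means rescue or toxicity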
#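 Fission yeast RE007 carrying one integrated HIV-1 vpr copy, seeded at OD 0.01 in PMG+AL medium with 23 nL pinned compound. Grown 24 h at 30 degrees; viability read by BacTiter-Glo luminescence after 5 min.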
# StopGo reporter: FMDV 2A StopGo reporter, luciferase signal. human cells with a luciferase reporter of 2A StopGo recoding; control for the full effect not named in the record. Potency, µM (doses to about 57.9 µM), for the others: at the top dose signal change, negative = less light. hit rate 1.2% among 410,000; active = well fitted falling curve with a large enough effect; inconclusive = small, poorly fitted or top-dose-only effect; inactive = no such curve, though single readings can be large or run the other way; tested in HEK293T cells; further: on the % scale 0 is the no-effect control and ±100 the full control effect; nearly all actives have a fitted effect of over 45% in size; luciferase light after 4 h
# SARS PLpro yeast: inhibitors of SARS-CoV papain-like protease in yeast; S. cerevisiae expressing SARS-CoV PLpro, growth rescue; control for the full effect not named in the record; Potency, µM (series often up to 32.9 µM), inactives show at the top dose activity, positive = growth rescue; hit rate 0.19% among 330,000; AID 485353; active means well fitted rising curve with a large enough effect; inconclusive means small, poorly fitted or top-dose-only effect; inactive means no such curve, though single readings can be large or run the other way; further: 0% is about no effect; nearly all actives have a fitted effect of over 55% in size; growth read by luminescence after 48 h
# Starred values were filed as active, the others as inactive; ? = inconclusive; . = not tested or not shown; [ ] = another dose, or the depositor's remark. Unless noted, the call rests on the fitted dose curve; in most records, active means well fitted curve in the direction sought with a large enough effect; inconclusive means small, poorly fitted or top-dose-only effect, or another doubt; inactive means no such curve, though single readings can be large; an effect the other way counts as inactive or inconclusive. Potency means the concentration at half of the fitted maximal effect.
SMILES,Marburg entry inh,NS1 inh,Cruzain inh Det,Cruzain noTriton,Lassa entry inh,RE007 growth inh,StopGo reporter,SARS PLpro yeast
CC(=O)CCc1oc2ccc(NC(C)=O)cc2c1-c1ccc(C)o1,-21%,-60%,-5.3%,-2%,-6%,4%,-22%,-30%
COc1ccc(C(=O)C2CCCN(C(=O)CCC3=NNC(=O)CC3)C2)c(C)c1 (centres undefined),4%[46.1 µM],2%,.,.,3%,-3%,5%,0%
CCS(=O)(=O)c1nc(S(=O)(=O)c2ccc(Cl)cc2)c(N2CCOCC2)s1,.,-1%,.,.,.,-2%,-1%,0%
CCOC(=O)C1=C(C)N(c2ccccc2)C(=O)C1CC(=O)O (centres undefined),3%[46.1 µM],-4%,1.5%,-1%,6%,6%,-3%,3%
Cc1ccc(NC(=S)N(C)Cc2cn(C)c3ccccc23)cc1,?,1%,-8.4%,-14%,?,-3%,25%,-3%
O=C(CC(c1ccccc1)c1cc(Br)ccc1O)NCCCN1CCOCC1 (centres undefined),.,-10%,.,.,.,-12%,-21%,4%
COc1ccc(NS(=O)(=O)c2cc(NC(=O)[C@@H](NC(N)=O)C(C)C)ccc2C)cc1,.,-8%,.,.,.,-6%,20%,1%
COc1ccc(-c2ccc(CCC(=O)O)o2)cc1,?,-5%,.,.,12%,-27%,38%[activator],-3%
O=C(COC(=O)c1cccc2ccccc12)Nc1ncc(C(F)(F)F)cc1Cl,10%,4.5µM*,-7.8%,-3%,1%,0%,6%,8%
O=C(CCc1cn(Cc2ccccc2Cl)c2ccccc12)NC1CCCCC1,.,.,-1.9%,-20%,-29%[46.1 µM],.,-13%,.
O=C1C[C@@H]2CCN3C(=O)CCC[C@@H]([C@H]23)[C@@H]1Cc1ccccc1,.,.,2.1%,-2%,.,-7%,-6%,9%
COc1ccc(NC(=O)c2cc(S(=O)(=O)N3CCc4ccccc43)cn2C)cc1,.,0%,.,.,.,13%,-20%,7%
COc1cccc(NC(=O)c2ccc(NC(=O)C(C)(C)C)cc2)c1,?,-3%,-0.8%,9%,0%,21%,-28%,-15%
Cc1ccc(Nc2nc3ccccc3c(=O)s2)cc1C,1%,?,3.6%,-7%,6%,10%,31%[activator],12%
CCC1=Nc2cc(C(=O)NCCN3CCOCC3)ccc2Sc2ccccc21,0%[46.1 µM],18%,.,.,-27%[46.1 µM],16%,6%,0%
CCOc1ccc(NC(=O)C2CCCN(S(=O)(=O)c3cccc4nsnc34)C2)cc1 (centres undefined),-7%,-3%,3.5%,-10%,-17%,-18%,.,2%
CCCS(=O)(=O)N1CCC(n2c(C(F)(F)F)nc3cccnc32)CC1,.,.,1.9%,-2%,25%[46.1 µM],.,2%,.
COc1ccc(-c2noc(CCCC(=O)N3CCOCC3)n2)cc1,-6%[46.1 µM],.,.,.,-7%[46.1 µM],6%,-23%,-1%
Cc1ccc2[nH]c(=O)c(CN(CCCN(C)C)C(=S)NCCc3ccccc3)cc2c1,?,6%,.,.,0%,-20%,?,0%
COc1ccc(/C=N/NC(=O)c2nc(-c3ccccc3)n(-c3ccccc3)n2)cc1,2%,-22%,-7.7%,-19%,-19%,37%,-18%,-22%
COc1ccc(CNC(=O)COC(=O)CC2CC3CCC2C3)cc1OC (centres undefined),29%,-3%,-1.0%,24%,-2%,-7%,-6%,-7%
O=c1c2ccccc2nc(COc2ccccc2)n1/N=C/c1ccc(O)c(O)c1,2%,-2%,.,.,.,2%,-2%,-1%
O=C(CCl)N=c1sccn1Cc1cccc2ccccc12,.,8%,.,.,.,11%,?,-1%
O=C(NCCc1ccccc1)C1CCN(C(=O)Nc2ccccc2)CC1,?,.,.,.,7%,1%,22%,-2%
NS(=O)(=O)c1cc(C(=O)NCCc2ccccn2)ccc1Cl,.,-3%,.,.,.,2%,-4%,-1%
Cc1ccc2ncc(C(=O)c3ccc(C)c(C)c3)c(S(=O)(=O)c3ccccc3)c2c1,?,.,-5.3%,-21%,.,.,-17%,.
O=C(CCNS(=O)(=O)c1ccccc1C(F)(F)F)NNC(=O)C1COc2ccccc2O1 (centres undefined),16%,.,.,.,?,12%,5%,.
CCCCN(Cc1cccs1)S(=O)(=O)c1ccc(-c2ccc(=O)[nH]n2)s1,-3%[46.1 µM],-7%,.,.,0%[46.1 µM],-1%,9%,-2%
Cc1nn(CC(=O)Nc2ccc3nc4n(c(=O)c3c2)CCCC4)c(C)c1[N+](=O)[O-],.,9%,.,.,.,7%,-18%,0%
CCOC(=O)CSc1nc2c(c(=O)n1-c1ccc(OC)cc1)SCC2,.,-4%,2.7%,1%,.,3%,0%,0%
Cc1ccc2nc(SCC(=O)NCc3ccccc3)nc(=O)n2c1,-2%[46.1 µM],.,.,.,13%,-5%,-3%,2%
CC1(C)CC(=O)c2ccc(O)cc2O1,-6%[46.1 µM],3%,.,.,17%,-17%,-15%,0%
Cc1ccc(S(=O)(=O)N2CCCCC2)cc1NC(=O)Cn1ccsc1=N,?,3%,.,.,2%,-9%,-7%,-1%
CC(C)OC(=O)/C(=C\c1cccc2ccccc12)NC(=O)c1ccccc1,?,-8%,-5.8%,-21%,?,-5%,-7%,0%
Cc1ccccc1NS(=O)(=O)CCCCC(Cl)(Cl)Cl,-14%[46.1 µM],.,.,.,-5%,-11%,-7%,-4%
CSc1cccc(Nc2cc(C(=O)NCCCN(C)c3ccccc3)c3ccccc3n2)c1,.,.,-0.3%,-22%,-10%[46.1 µM],.,-21%,.
O=C(COc1ccc(Br)cc1)Nc1ccc(S(=O)(=O)Nc2ccccn2)cc1,4%[46.1 µM],-9%,.,.,2%[46.1 µM],0%,42%[activator],3%
C=CCNC(=S)NNC(=O)c1cccn(Cc2ccc(Cl)cc2)c1=O,?,?,6.0%,-4%,35%,23%[3.69 µM],12%,-3%
COc1ccc(NS(=O)(=O)c2ccc(NC(=S)NC(=O)c3ccc(F)cc3)cc2)nn1,?,19%,-6.0%,-7%,?,-14%,3%,-6%
COc1ccccc1C(=O)NNC(=O)c1cccc(C)c1,?,-9%,.,.,5%,-9%,36%[activator],-5%
Cc1cc(C(=O)Nc2cccc3ccccc23)c(C)o1,-1%[46.1 µM],-6%,.,.,7%[46.1 µM],-9%,10%,0%
Cc1ccc2cc3c(nc2c1)N(c1ccccc1)CC3,-1%,-1%,.,.,11%,-12%,8%,0%
Cc1cccc(-n2cc(CN3CCN(C(=O)c4ncn[nH]4)CC3)c(-c3cccc(F)c3)n2)c1,-2%,5%,.,.,?,-11%,19%,-2%
Cc1ccc(S(=O)(=O)N2CCCCC2)cc1NS(=O)(=O)c1ccc(Cl)c(C(=O)O)c1,0%,.,.,.,-2%,-12%,-12%,-3%
CCOC(=O)c1cc(-c2ccc(F)cc2)n(CCC(=O)Nc2nc3cc(C)c(C)cc3s2)c1C,.,.,-1.2%,-4%,0%[46.1 µM],.,-20%,.
Cc1cc(/C=C2/NC(=O)N(c3ccccc3)C2=O)c(C)n1-c1cccnc1,?,15%,-11%,3%,-7%,47%,23%,4%
Cc1ccc(S(=O)(=O)N(C)C)cc1NC(=O)COC(=O)C1(c2ccccc2)CC1,5%,.,.,.,-8%,3%,-10%,6%
CC(C)(C)SCCNC(=O)CN(c1ccccc1)S(=O)(=O)c1ccccc1,-20%,7%,.,.,?,-1%,-2%,0%
O=C(O)Cc1csc2ccccc12,5%,-7%,3.6%,0%,9%,4%,-12%,7%
Cc1ccc(/C=N/NC(=O)c2n[nH]c3c2CCCC3)cc1,?,-2%,.,.,?,-13%,50%[activator],-1%
# (continued)
SMILES,Marburg entry inh,NS1 inh,Cruzain inh Det,Cruzain noTriton,Lassa entry inh,RE007 growth inh,StopGo reporter,SARS PLpro yeast
CCOc1ccccc1NS(=O)(=O)c1cccs1,-8%,-5%,5.5%,5%,11%,-12%,-16%,1%
COc1cc(C(=O)NCC(=O)N/N=C/c2ccccn2)cc(OC)c1OC,27%[46.1 µM],.,.,.,2%,-2%,-10%,1%
Cc1ccc(-c2noc(COc3ccccc3C)n2)cc1,-34%[46.1 µM],-18%,3.3%,9%,10%,6%,53%[activator],-21%
COc1ccc(C(=O)NC(=S)NNC(=O)c2cnccn2)cc1OC,?,-3%,2.0%,5%,-24%,4%,-14%,4µM*
O=C(c1cc2c(s1)CCCC2)N1CCC2(CC1)OCCO2,18%,-22%,3.1%,0%,0%,-18%,61%[activator],0%
COc1ccc(-c2ccc(=O)n(Cc3cc(=O)n4ccccc4n3)n2)cc1,-20%,-20%,-1.9%,-4%,-19%,-1%,0%,1%
Cc1c(/C=N/n2cnnc2)c2ccccc2n1CCOc1ccccc1,?,.,-10%,?,3%,-19%,?,-1%
Cc1cccc(-n2c(C)nc3cc(C(=O)NCC4CCCO4)ccc32)c1 (centres undefined),.,-2%,.,.,.,-9%,16%,2%
CCc1c(C)nc2ncnn2c1Nc1ccccc1C,-3%,-1%,.,.,-11%,4%,-22%,-7%
CC(C)CCNC(=O)CSc1nc2ccccc2s1,-1%[46.1 µM],.,.,.,7%[46.1 µM],6%,5%,0%
CC(C)NC(=S)Nc1ccc2nc3n(c(=O)c2c1)CCCCC3,?,-8%,-3.8%,9%,?,-2%,10%,-17%
Cc1ccc(NC(=O)C2CC(=O)n3c(nc4ccccc43)N2)cc1 (centres undefined),1%,4%,2.4%,?,15%,-17%,.,-4%
COc1ccc(CCn2c(C(C)C)nc3oc4ccccc4c(=O)c3c2=O)cc1,.,-2%,.,.,.,20%,-13%,-1%
CNC(=S)N/N=C/c1ccccc1OCC(=O)O,21%[46.1 µM],-2%,.,.,6%,-5%,1%,0%
COc1cc2cc3c(N)c(C(=O)NCc4ccco4)sc3nc2cc1OC,?,-1%,?,?,-2%,-19%,4%,5%
O=C(CN(CCc1ccccc1)C(=O)c1csnn1)NC1CCCC1,.,-2%,.,.,.,-9%,-13%,1%
Brc1ccc(CNc2nc3ccccc3n2CCN2CCCCC2)cc1,5%,0%,.,.,.,-16%,?,-1%
CCOC(=O)c1c(C)sc(-c2c(-c3cc(C)ccc3C)[nH]c3c2c(=O)n(C)c(=O)n3C)c1O,-1%[46.1 µM],.,-4.6%,?,11%[46.1 µM],.,0%,.
